Mtb bLac sens: beta-lactam sensitization of Mtb H37Rv; M. tuberculosis H37Rv growth with meropenem, percent inhibition; hits of this screen are not shown here; 330,000 compounds, 0.27% hits; inhibition, % at 25 µM;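 active = about 74% or more and at least 40 points above the plate without the antibiotic, then above 30% in a dose series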;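 note: growth measured after seven days incubation then overnight dye step; 0% = bacteria only wells and 100% = bacteria with antibiotic; twin plates without the antibiotic show which effects depend on it; some results filed as inactive read as strong as hits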
Active calls of the source: *. This is a subset. The share of hits here may be higher or lower than overall.

SMILES	Mtb bLac sens
Cc1cc(-n2c(C)cc(C(=O)CSc3[nH]c(=O)cc(C(F)(F)F)c3C#N)c2C)no1	-1.3
Cc1cc(C(=O)NN=Cc2ccc(OC(=O)c3ccco3)cc2)c(C)o1	30.8
COc1ccc(C(=O)CC(=O)c2ccccc2O)cc1	11.3
COc1ccc(CNc2nc(NCc3ccc(OC)cc3)c3ncn(C4CCCC4)c3n2)cc1	0.1
COC(=O)C1CCN(C(=O)COc2ccc(S(=O)(=O)N3CCOCC3)cc2Cl)CC1	-0.2
Nc1ncnc2c1ncn2[C@@H]1O[C@H](CNCc2ccccc2OCC(=O)N2CCCCC2)[C@@H](O)[C@H]1O	-4.3
CN(C)C(=O)N=NC(=O)N(C)C	-0.9
O=C(CN1C(=O)c2cccc([N+](=O)[O-])c2C1=O)N1CCN(S(=O)(=O)c2ccccc2)CC1	-1.6
Cc1c(Cl)cccc1NC(=O)COC(=O)C12CC3CC(CC(O)(C3)C1)C2	-8.5
Cc1ccc(Cl)c(NC(=O)COC(=O)c2nn(C)c(=O)c3ccccc23)c1Cl	-1.6
COc1cc([C@@H]2OC[C@@H]3[C@H]2CO[C@@H]3c2ccc3c(c2)OCO3)ccc1O	-9.6
CC[C@]12C(=O)N(C)C[C@H]([C@@H]3C(=O)N(C)C(=O)[C@@H]31)N2C(=O)c1ccc(C(F)(F)F)cc1	-0.3
O=C(OCC(=O)N1CCCC1=O)c1cc2ccccc2o1	-4.4
COc1ccc([C@H]2CC(=O)C=C(c3ccc4ncccc4c3)C2)cc1OC	61.8
CCOC(=O)c1ccc(-c2ccc3oc(-c4ccsc4)cc(=O)c3c2)cc1F	52.0
COc1ccc(CNC(=O)COC(=O)c2ccc(S(=O)(=O)N3CCCCC3)cc2)cc1	-9.7
COc1ccc([C@H]2CC(=O)C=C(c3ccc(-c4ccccc4)c(F)c3)C2)cc1OC	4.5
CCOc1ccc(NC(=O)COC(=O)c2cc(C)oc2C)cc1	-5.6
NC(=O)C1CCN(c2ccc(S(=O)(=O)N3CCCCC3)cc2[N+](=O)[O-])CC1	-0.4
NS(=O)(=O)c1cc(C(=O)NNC(=O)c2ccc3c(c2)OCO3)ccc1Cl	-11.9
CCCCN(C(=O)CSc1nc2ccccc2s1)c1c(N)n(CCCC)c(=O)[nH]c1=O	-0.2
NC(=O)C1CC(=O)N(c2ccc(OCC(=O)Nc3ccccc3F)cc2)C1 (centres undefined)	-9.8
O=C(CCNC(=O)c1ccccc1)NNC(=O)c1ccccc1Br	1.7
Cc1ccccc1NC(=O)C1CCCN1S(=O)(=O)c1ccccc1C(F)(F)F (centres undefined)	-6.6
CCc1noc(C)c1C(=O)NNC(=O)c1ccc(Br)cc1	-12.6
CN(CC(=O)Nc1ccc(Cl)cc1)C(=O)COc1ncnc2ccccc12	-5.1
CCN1C(=O)[C@@H]2[C@H](C1=O)[C@@H]1C(=O)Nc3ccccc3C(=O)N1[C@@H]2c1cccc(C)c1	-0.9
Cc1noc(C)c1S(=O)(=O)Nc1ccc2c(c1)CC(=O)N([C@H](C)CO)C[C@H](C)[C@H](CN(C)S(=O)(=O)c1ccc(F)cc1)O2	12.9
COc1ccc(N(CC(=O)NC2CCCCC2)S(=O)(=O)c2cccs2)cc1	0.2
Cc1cc(C(=O)COC(=O)/C=C/c2ccco2)c(C)n1C	50.5
CCN(C[C@H]1N[C@@](Cc2ccccc2)(C(=O)OC)[C@H]2C(=O)N(C)C(=O)[C@@H]12)C(=O)Nc1ccc(F)cc1	2.7
COc1ccc(C(=O)Oc2ccc(/C=N/NC(=O)c3cccnc3)cc2OC)cc1	-4.8
CCC(CC)NC(=O)c1cc(S(=O)(=O)N2CCCCC2)ccc1N1CCOCC1	-0.4
Cc1csc(SC(C)C(=O)Nc2ccccc2C)n1 (centres undefined)	1.0
CCc1sc(C(=O)NNC(=O)CNC(=O)c2ccccc2F)cc1C	-14.6
CN(C)C1=NCCN1CCC1CCCCC1	-3.5

Shown as labelled records: 4 of the compounds above.
canonical_smiles: CCOc1ccc(NC(=O)COC(=O)c2cc(C)oc2C)cc1
  Mtb bLac sens: -5.6
canonical_smiles: CCc1sc(C(=O)NNC(=O)CNC(=O)c2ccccc2F)cc1C
  Mtb bLac sens: -14.6
canonical_smiles: Cc1c(Cl)cccc1NC(=O)COC(=O)C12CC3CC(CC(O)(C3)C1)C2
  Mtb bLac sens: -8.5
canonical_smiles: CCOC(=O)c1ccc(-c2ccc3oc(-c4ccsc4)cc(=O)c3c2)cc1F
  Mtb bLac sens: 52.0

More entries
SMILES	Mtb bLac sens
COC(=O)[C@]1(C)N[C@H](CN(C)S(=O)(=O)c2ccc(OC(F)(F)F)cc2)[C@@H]2C(=O)N(C)C(=O)[C@@H]21	-2.5
O=C(COC(=O)C1CCCCC1)Nc1cccc(Br)c1	-1.2
O=S(=O)(Nc1cc(S(=O)(=O)N2CCOCC2)ccc1NCC1CCCO1)c1ccccc1 (centres undefined)	-3.3
O=S(=O)(NCCCCCCNS(=O)(=O)c1c(F)cccc1F)c1ccc2c(c1)OCCO2	4.3
CCCNC(=O)CN1CCN(S(=O)(=O)c2ccc(Br)s2)CC1	1.3
Cn1nc(C(=O)OCC(=O)Nc2cc(Cl)ccc2C#N)c2ccccc2c1=O	-6.0
Cc1cnc(C(=O)OCC(=O)Nc2cc(S(=O)(=O)N3CCOCC3)ccc2Cl)cn1	-1.7
CCC(=O)OCC(=O)C1(OC(=O)CC)[C@H](C)C[C@H]2[C@H]3[C@H]([C@@H](O)C[C@@]21C)[C@@]1(C)C=CC(=O)C=C1C[C@H]3Cl (some centres undefined)	-0.1
CC1Cc2ccccc2N1C(=O)Cn1cc([N+](=O)[O-])ccc1=O (centres undefined)	2.1
O=C1N[C@H](Cc2ccccc2)COC(=O)[C@H](Cc2ccc(F)cc2)C/C=C\C[C@H]1CC(=O)N(CCO)Cc1ccccc1	7.2
Cn1nc(-c2ccccc2)cc1NC(=O)c1ccc(Cl)cc1	80.2
O=S(=O)(c1ccc(SCCO)nc1)N1CCOCC1	-3.5
O=C(C[C@H]1C/C=C\CC[C@@H](Cc2ccc(F)cc2)C(=O)O[C@@H](c2ccccc2)CNC1=O)N[C@@H](CO)Cc1ccccc1	-7.5
CN(c1ccc(OCCOc2ccccc2Cl)cc1)S(=O)(=O)c1ccccc1	1.7
COc1ccc(OCC(=O)N(C)CC2COc3ccccc3O2)cc1 (centres undefined)	-2.2
N#C/C(=C\c1cccnc1)c1ccc([N+](=O)[O-])cc1	-1.3
Fc1ccc(CNc2ncccn2)cc1	-5.8
O=C(NCCc1ccc(F)cc1)c1ccc(NS(=O)(=O)c2ccc3[nH]c(=O)[nH]c3c2)cc1	0.8
COc1cc(OC)cc(-c2c(C#Cc3ccsc3)c3cc(Br)ccc3n2C)c1	-2.1
CCN(CC(=O)Nc1ccc(NC(C)=O)cc1)C(=O)c1ccc(C(=O)c2ccccc2)cc1	-0.7
C#CCOCCOCCOCCNc1nc(N2CCN(C(=O)[C@H](CCCCN)n3cc(CCCC)nn3)CC2)nc(N2CCN(C(=O)[C@H](CCCCN)n3cc(CCC(=O)O)nn3)CC2)n1	-9.5
O=C(C[C@H]1C/C=C\C[C@H](Cc2ccc(F)cc2)C(=O)OCCNC1=O)NCCO	-1.6
CCOc1ccc(NC(=O)CN(C)C(=O)C2CSC3(C)CCC(=O)N23)cc1OCC (centres undefined)	2.1
O=C(CNC(=O)c1ccc(Cl)cc1Cl)OCC(=O)N1CCCC1	-6.7
Cc1ccc(N2C(=O)N(CC(=O)Nc3cc(F)ccc3C)C(=O)C2C)cc1 (centres undefined)	0.2
Cc1noc(C)c1S(=O)(=O)N(C)C[C@H]1Oc2c(cccc2N(C)C)C(=O)N([C@H](C)CO)C[C@@H]1C	-0.9
C[C@H](CO)N1C[C@H](C)[C@H](CN(C)Cc2ccc(-c3ccccc3)cc2)Oc2ccc(NS(=O)(=O)c3ccccc3)cc2CC1=O	6.3
CC[C@@H]1Cc2cc(O)ccc2C2=C1c1ccc(O)cc1C[C@H]2CC	5.5
O=C(COC(=O)Cc1ccccc1)NCc1ccc2c(c1)OCO2	-0.8
CC(c1ccc2c(c1)OCO2)n1c(=S)[nH]c2ccccc2c1=O (centres undefined)	4.2
CSCCC(NC(=O)c1ccccc1Cl)C(=O)NCc1ccncc1 (centres undefined)	5.2
COCC(=O)N1CCC(n2nccc2NC(=O)c2ccccc2OC)CC1	-5.1
NC(=O)C1CCCN(C(=O)c2ccc3c(c2)NC(=O)CS3)C1 (centres undefined)	-6.5
O=[N+]([O-])c1ccc2c(c1)nc(CO)n2Cc1ccccc1	4.4
O=C(Cn1cc([N+](=O)[O-])ccc1=O)Nc1ccc2c(c1)OCO2	-3.3
COc1ccc(NC(=O)CC2C(=O)Nc3ccccc3N2CC(=O)N2CCCC2)cc1 (centres undefined)	8.8
COc1cc(C#Cc2c(-c3cncn3C)n(C)c3ccc(-c4ccc5[nH]ccc5c4)cc23)cc(OC)c1	98.9
CC(=O)c1ccc(NC(=O)C(C)OC(=O)c2ccc(Br)o2)cc1 (centres undefined)	-3.4
COCCn1c(SCC(=O)NC2CC2)nnc1-c1ccc(Cl)cc1	2.3
CCN(C(=O)COC(=O)c1cnccn1)c1cccc2ccccc12	-5.3
CCOc1ccc(NC(=O)c2sc3nc(C)nc(N4CCOCC4)c3c2C)cc1	87.8
CCN1CCN(C(c2cccnc2)c2c(NC(=O)c3ccco3)sc(C)c2C)CC1 (centres undefined)	-0.9
O=C(Nc1ccc(S(=O)(=O)NC2=NCCCCC2)cc1)c1cccc(S(=O)(=O)N2CCOCC2)c1	-6.4
CCOc1ccc(Oc2ccc(C(F)(F)F)cc2NC(=O)C2=COCCO2)cc1	-0.2
Cc1ccccc1N=C(N)Nc1ccccc1C	3.5
O=C(NCc1ccccc1C(F)(F)F)c1cccc2c1C(=O)c1ccc(N3CCCCC3)cc1S2(=O)=O	9.0
CCOc1cc(C(=O)NCc2ccc(F)cc2)ccc1OCC(=O)N1CCCCC1	3.0
N#Cc1cc2nc(O)c(O)nc2cc1[N+](=O)[O-]	1.5

2 entries from above in another layout:
| mol | Mtb bLac sens |
| --- | --- |
| COCCn1c(SCC(=O)NC2CC2)nnc1-c1ccc(Cl)cc1 | 2.3 |
| CCN(C(=O)COC(=O)c1cnccn1)c1cccc2ccccc12 | -5.3 |

Remaining list, next part
SMILES	Mtb bLac sens
COc1ccc(C(=O)NC(C)CCc2ccccc2)cc1[N+](=O)[O-] (centres undefined)	-11.7
CCOc1ncccc1C(=O)OCC(=O)Nc1ccc(Cl)cn1	0.9
C=CCNC(=S)NNc1nc(N2CCCC2)nc(N2CCCC2)n1	6.7
CN1C(=O)N(CC(=O)NCc2ccc(Cl)cc2Cl)C(=O)C12CCCCC2	4.6
COc1ccc2c(c1)CCCC21NC(=O)N(CC(=O)N2CC(C)OC(C)C2)C1=O (centres undefined)	0.8
COc1ccccc1NS(=O)(=O)c1ccc(C(=O)N2CCN(c3ccccn3)CC2)cc1	-5.2
COCCNC(=S)N1CCN(c2nc(-c3ccc(Cl)cc3)cs2)CC1	0.8
CCOc1ccc(NC(=O)CN(C)C(=O)CN2C(=O)C3CCCCC3C2=O)cc1OCC (centres undefined)	-1.6
CC[C@@]1(C(=O)OC)N[C@H](CN(C)C(=O)Nc2ccccc2)[C@@H]2C(=O)N(Cc3ccccc3)C(=O)[C@@H]21	-2.1
COc1cc(CCC(=O)OCC(=O)N2CC(=O)Nc3ccccc32)cc(OC)c1OC	0.8
Nc1nc(N)nc(-c2cc(O)ccc2O)n1	-5.7
Cc1cc(C(=O)NNC(=O)c2cccs2)c(C)o1	-1.2
Cc1nc(SCc2nc3ccc(C(=O)c4ccccc4)cc3[nH]2)c2oc3ccccc3c2n1	14.2
COc1ccccc1N1CC(C(=O)Nc2ccc(C)c(S(=O)(=O)N3CCOCC3)c2)CC1=O (centres undefined)	1.3
COc1ccc(-c2c(-c3cc(OC)cc(OC)c3)n(C)c3ccc(-c4ccc5[nH]ccc5c4)cc23)cc1	17.2
Cc1ccc(N(CC(=O)NC2CCCCC2)C(=O)CNC(=O)c2ccco2)c(C)c1	6.8
Cc1cnc[nH]1	4.0
O=C(NCCc1ccc(F)cc1)c1cccc2c1C(=O)c1ccc(N3CCC(Cc4ccccc4)CC3)cc1S2(=O)=O	5.5
CC(C)[C@H](NC(=O)c1ccccc1F)C(=O)NC1CCCCCCC1	5.0
Cc1cnc(NC(=O)c2cc(S(=O)(=O)N(C)C)ccc2N2CCCC2)s1	1.0
O=C(c1ccco1)N1CCN(C(=O)c2cc(=O)[nH]c3ccccc23)CC1	0.0
Cc1ccccc1N1C(=O)c2cc(S(N)(=O)=O)c(Cl)cc2NC1C (centres undefined)	-6.5
COc1ccc(S(=O)(=O)N2CCN(C(=O)c3cc(C4CC4)nn3-c3ccccc3)CC2)cc1OC	-7.9
CC(C)(Cc1ccc(O)cc1)NC(=O)CC(=O)N/N=C/c1ccc(Cl)cc1	5.7

Three structures already listed, ordered by SMILES length, largest number first:
SMILES	Mtb bLac sens
O=C(c1ccco1)N1CCN(C(=O)c2cc(=O)[nH]c3ccccc23)CC1	0.0
Cc1cnc(NC(=O)c2cc(S(=O)(=O)N(C)C)ccc2N2CCCC2)s1	1.0
CC(C)[C@H](NC(=O)c1ccccc1F)C(=O)NC1CCCCCCC1	5.0

The list goes on.
SMILES	Mtb bLac sens
Cc1ccc(Cl)cc1N1CCN(C(=O)CNC(=O)c2ccc(Br)o2)CC1	45.4
CN(C(=O)COC(=O)c1ccccc1OCc1ccc(F)cc1)C1CCS(=O)(=O)C1 (centres undefined)	-7.4
CN(CC(=O)Nc1ccc(Cl)c(C(F)(F)F)c1)C(=O)COC(=O)C1CC2CCCC(C1)C2=O (centres undefined)	-7.6
CCOc1ccc(C2Nc3ccccc3NC3=C2C(=O)CC(C)(C)C3)cc1OC (centres undefined)	3.1
C[C@H](CO)N1C[C@H](C)[C@@H](CN(C)C(=O)NC2CCCCC2)Oc2ccc(NC(=O)c3ccncc3)cc2C1=O	-10.7
O=C(COC(=O)CNC(=O)c1ccccc1)Nc1ccc(Cl)cn1	-11.2
Cc1sc2ncnc(N3CCC(C(=O)Nc4ccc(F)cc4Cl)CC3)c2c1C	62.0
Cc1c(C(=O)NCc2ccco2)oc2c(Cl)cccc12	-3.4

High-throughput results from PubChem BioAssay.
